Screening results: PubChem BioAssay, National Center for Advancing Translational Sciences (NCATS)
Vaccinia Venus: vaccinia inhibition (Venus reporter); 330,000 compounds, 0.46% hits; Vaccinia virus Venus reporter expression, fluorescence; Potency, µM (series often up to 36.5 µM), inactives show at the highest dose activity change, negative = inhibition, actives largely listed as inhibitors; active means well fitted inhibition curve with a large enough effect; inconclusive means small, poorly fitted or top-dose-only effect; inactive means no such curve, though single readings can be large or run the other way; tested in A549 cells; further: nearly all actives have a fitted effect of over 30% in size; inactives centre near -10
VACV mCherry inh: inhibitors of vaccinia virus infection (mCherry reporter signal); Vaccinia virus mCherry reporter infection, fluorescence; about a quarter of the inactives have no number; Potency, µM (highest dose often 36.5 µM), inactives show at the highest dose activity change, negative = inhibition, most hits filed as inhibitors; 310,000 compounds, 0.63% hits; active = well fitted inhibition curve with a large enough effect; inconclusive = small, poorly fitted or top-dose-only effect; inactive = no such curve, though single readings can be large or run the other way; tested in A549 cells; further: nearly all actives have a fitted effect of over 35% in size; inactives centre near -10
* marks the source's active call; other numbers are inactive results; i = inactive; u = inconclusive; & = joins results of further samples. On the % scale 0 is the no-effect control and ±100 the full control effect; potency means the concentration at half of the fitted maximal effect.

Fields – Vaccinia Venus, VACV mCherry inh
1. C#CCOCCOCCOCCNc1nc(N2CCN(C(=O)C([C@@H](C)O)n3cc([C@@H](N)CCCCN)nn3)CC2)nc(N2CCN(C(=O)[C@H](CCCCN)n3cc([C@@H](N)[C@H](C)CC)nn3)CC2)n1 (some centres not stated)
→ -13%, i
2. CCc1cc2c(=O)c(-c3nc(C)cs3)coc2cc1OC(C)C(=O)NCCO (configuration not stated)
→ -16%, -15%
3. COc1cc(C(O)c2nc(-c3ccccc3OC)cs2)ccc1F (configuration not stated)
→ -6%, -2%
4. CN1c2ccc([N+](=O)[O-])cc2CC2(C(=O)NC(=O)N(c3ccc(Br)cc3)C2=O)C1c1ccccc1 (configuration not stated)
→ -14%, i
5. Cc1cc(NC(=O)CSc2nnnn2-c2ccc(F)cc2)no1
→ -3%, i
6. COCCn1c(CN2CCN(C(c3ccccc3)c3ccccc3)CC2)nc2c1c(=O)n(C)c(=O)n2C
→ -11%, i
7. O=C(CCCCCn1c(=O)c2sccc2n(CC(=O)Nc2ccccc2F)c1=O)NCc1ccc2c(c1)OCO2
→ -3%, -6%
8. Cc1nc2ccccc2c(=O)n1NC(=O)/C=C/c1ccccc1
→ -12%, -8%
9. CSc1nc(C(=O)NCc2nc(-c3cccc(NC(=O)c4ccc(C)s4)c3)oc2C)cs1
→ 14%, -4%
10. O=C(NCc1ccncc1)NC12CC3CC(CC(C3)C1)C2
→ -3%, -14%
11. CCOc1cc(N2CCOCC2)c(OCC)cc1NC(=O)CSc1ncccn1
→ -14%, i
12. COc1ccc(OC)c(Nc2ncnc3c2nc2n3CCCC2)c1
→ -14%, -4%
13. Cc1csc(Nc2ccccc2)[n+]1-c1ccccc1
→ -1%, -7%
14. COc1ccc(N2CCN(C(=O)CCc3nnc4ccc(N5CCOCC5)nn34)CC2)cc1
→ -10%, -20%
15. Cc1ccc(/C=C/C(=O)O)cc1S(=O)(=O)NC1CCS(=O)(=O)C1 (configuration not stated)
→ -5%, i
16. O=C(Cn1cnc2c(oc3ccccc32)c1=O)N1CCCC1
→ 3%, -1%
17. CCc1ccc(-n2c(=O)c3c4c(sc3n(CC(=O)NC(C)CC)c2=O)CCCC4)cc1 (configuration not stated)
→ -4%, -4%
18. CCOCCCNC(=O)C1CCCN(Cc2nc(-c3ccc(CC)cc3)oc2C)C1 (configuration not stated)
→ -23%, u
19. O=C1CC(C(=O)Nc2cccc(F)c2)n2ncnc2N1 (configuration not stated)
→ -12%, i
20. CCCOc1cccc(-c2cc(C(=O)N/N=C/c3cccnc3)c3ccccc3n2)c1
→ -2%, i
21. Cc1occc1C(=O)NCc1ccc(C(=O)O)o1
→ -14%, -15%
22. COc1ccc(N(Cc2ccccc2)C(=O)c2nc(S(C)(=O)=O)ncc2Cl)cc1
→ u, u
23. CCOCCCN(C(=O)Cn1nnc(-c2ccc(C)o2)n1)C(C(=O)NC1CCCC1)c1ccco1 (configuration not stated)
→ 6%, -7%
24. CNC(C)C(=O)NC(C(=O)N1CCCC1C(=O)NC1CCCc2ccccc21)C(C)C (configuration not stated)
→ -10%, -16%
25. CCCN1CCC(=O)N(CCSc2ccccc2)CC1
→ -16%&-8%, -20%
26. NCC(CC(=O)O)c1ccc(Cl)s1 (configuration not stated)
→ -6%, i
27. COc1ccccc1N1CCN(C(=O)Cc2ccc(Cl)cc2)CC1
→ -22%, i

One compound at a time, as listed above. Values in the order: Vaccinia Venus, VACV mCherry inh
CN1c2ccc([N+](=O)[O-])cc2CC2(C(=O)NC(=O)N(c3ccc(Br)cc3)C2=O)C1c1ccccc1 (configuration not stated) is listed as -14%, i
CCc1cc2c(=O)c(-c3nc(C)cs3)coc2cc1OC(C)C(=O)NCCO (configuration not stated) is listed as -16%, -15%
CSc1nc(C(=O)NCc2nc(-c3cccc(NC(=O)c4ccc(C)s4)c3)oc2C)cs1 is listed as 14%, -4%
CCOCCCN(C(=O)Cn1nnc(-c2ccc(C)o2)n1)C(C(=O)NC1CCCC1)c1ccco1 (configuration not stated) is listed as 6%, -7%
C#CCOCCOCCOCCNc1nc(N2CCN(C(=O)C([C@@H](C)O)n3cc([C@@H](N)CCCCN)nn3)CC2)nc(N2CCN(C(=O)[C@H](CCCCN)n3cc([C@@H](N)[C@H](C)CC)nn3)CC2)n1 (some centres not stated) is listed as -13%, i

Part of the list above in order of heavy-atom count, falling.
Fields – Vaccinia Venus, VACV mCherry inh
1. C#CCOCCOCCOCCNc1nc(N2CCN(C(=O)C([C@@H](C)O)n3cc([C@@H](N)CCCCN)nn3)CC2)nc(N2CCN(C(=O)[C@H](CCCCN)n3cc([C@@H](N)[C@H](C)CC)nn3)CC2)n1 (some centres not stated)
→ -13%, i
7. O=C(CCCCCn1c(=O)c2sccc2n(CC(=O)Nc2ccccc2F)c1=O)NCc1ccc2c(c1)OCO2
→ -3%, -6%
24. CNC(C)C(=O)NC(C(=O)N1CCCC1C(=O)NC1CCCc2ccccc21)C(C)C (configuration not stated)
→ -10%, -16%
2. CCc1cc2c(=O)c(-c3nc(C)cs3)coc2cc1OC(C)C(=O)NCCO (configuration not stated)
→ -16%, -15%
8. Cc1nc2ccccc2c(=O)n1NC(=O)/C=C/c1ccccc1
→ -12%, -8%
10. O=C(NCc1ccncc1)NC12CC3CC(CC(C3)C1)C2
→ -3%, -14%
26. NCC(CC(=O)O)c1ccc(Cl)s1 (configuration not stated)
→ -6%, i
